# RGS16-Gao HTS: modulators of RGS16 binding to Galphao, primary screen, biochemical, human proteins, multiplexed bead flow cytometry; bead-based flow cytometry RGS16-Galphao binding, fluorescence; actives lie on both sides; Regulator of G-protein signaling 16 (Homo sapiens) + Guanine nucleotide-binding protein …; 220,000 tested, 0.38% active; binding response (% of control), % at 10 µM; AID 1441, 2008;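 active means below 25% or above 175%, edge rows of some plates excepted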;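 further: Galphao activated by GDP with aluminum fluoride before binding; 100% = wells without compound and 0% = beads without RGS; some results beyond the cut were filed as inactive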
# Target sequence (O15492 whole entry, looked up): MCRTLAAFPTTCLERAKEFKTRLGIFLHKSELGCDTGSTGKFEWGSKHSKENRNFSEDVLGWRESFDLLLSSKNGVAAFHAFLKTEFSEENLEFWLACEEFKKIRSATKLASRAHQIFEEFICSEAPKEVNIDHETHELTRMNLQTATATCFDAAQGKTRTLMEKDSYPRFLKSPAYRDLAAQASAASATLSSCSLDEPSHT
# Target sequence (P09471 whole entry, looked up): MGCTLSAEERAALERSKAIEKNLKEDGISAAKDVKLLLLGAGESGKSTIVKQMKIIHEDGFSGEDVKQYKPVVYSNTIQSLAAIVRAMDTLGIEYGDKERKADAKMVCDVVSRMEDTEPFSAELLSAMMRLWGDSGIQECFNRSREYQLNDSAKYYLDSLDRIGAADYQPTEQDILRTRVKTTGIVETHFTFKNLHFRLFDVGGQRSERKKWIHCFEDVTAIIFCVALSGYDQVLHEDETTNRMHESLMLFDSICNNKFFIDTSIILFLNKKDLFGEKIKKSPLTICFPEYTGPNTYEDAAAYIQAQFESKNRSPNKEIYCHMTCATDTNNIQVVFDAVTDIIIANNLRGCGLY
# GALR2 ag: GALR2 receptor agonists, primary screen, cell-based; GALR2-expressing cells, agonist activation read-out; activation, %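 (tested at 5 µM)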; 140,000 tested, 0.48% active; AID 803, 2007;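 active means above mean plus 3 SD of all compounds, about 5% in these data, not always enough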;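 further: 0% = vehicle buffer wells and 100% = reference agonist at full effect; tested in CHO reporter cells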
# Target sequence (O43603 whole entry, looked up): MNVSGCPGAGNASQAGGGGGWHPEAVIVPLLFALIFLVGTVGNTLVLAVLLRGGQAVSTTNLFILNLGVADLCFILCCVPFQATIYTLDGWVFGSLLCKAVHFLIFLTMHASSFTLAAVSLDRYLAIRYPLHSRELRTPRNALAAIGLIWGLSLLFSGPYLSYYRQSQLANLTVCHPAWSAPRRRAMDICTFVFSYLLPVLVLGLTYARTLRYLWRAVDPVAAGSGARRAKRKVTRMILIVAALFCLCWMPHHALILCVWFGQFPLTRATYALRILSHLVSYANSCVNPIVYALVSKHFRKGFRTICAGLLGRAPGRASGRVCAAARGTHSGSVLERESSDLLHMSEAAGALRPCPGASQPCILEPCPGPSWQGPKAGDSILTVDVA
# HSV augment: enhancers of HSV replication in host cells, fold increase, host cell viability. HSV replication augmentation in cells. maximum fold increase. 220,000 tested, 0.005% active. AID 1956, 2009;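 active means peak rise of 1.5-fold or more in the series; inconclusive means self-fluorescent or not available for retest; tested in PC3 cells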;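 further: first round at 10 µM; read as green reporter fluorescence; hits show the peak of a series up to 25 µM; 1 = signal of infected wells without compound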
# PKD1 kinase inh: inhibitors of human PKD1 kinase, biochemical, fluorescence polarization | inhibition, %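 (about 10 µM by stock and volumes)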 | PKD1 kinase fluorescence polarization assay | 200,000 tested, 0.056% active;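 active means inhibition of 50% or more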;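 further: controls were vehicle for no effect and a reference inhibitor for full effect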
# INS promoter inh: inhibitors of insulin promoter-driven GFP, primary screen, imaging, TRM-6 cells (human fetal islet line), eGFP reporter, cell count | inhibition, % at 2 µM | 130,000 tested, 0.9% active | reporter expression induced with tamoxifen;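 active means inhibition above the mean plus 3 SD, with well images judged a real hit on visual review, cut at about 60% in these data, passing the limit was not always enough; inconclusive means inhibition over the cutoff but images rejected on review; inactive means inhibition not above the cutoff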
# INS promoter inh cell count: also measured in INS promoter inh; calls as there; normalized cell count, %; measured here: cell count, toxicity; reference of the scale not given here;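 cells exposed to compound for 48 h; stained nuclei by imaging scaled within each plate; lower means fewer cells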
# HSV augment primary fold: recorded beside HSV augment, whose call it bears; fold increase; compound at 10 µM; measured here: primary screen fold increase 10 uM; tested in PC3 cells;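 GFP signal in the first replicate; 1 = infected wells without compound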
# * = called active by the depositor; i = inactive; ? = inconclusive; . = not tested or not shown.
# Every second line gives: HSV augment primary fold	PKD1 kinase inh	GALR2 ag	HSV augment	RGS16-Gao HTS	INS promoter inh	INS promoter inh cell count
- CCCC(=O)N/N=C1\CS(=O)(=O)N(C)c2ccsc21
 : 0.91	-2.5	.	i	106.4	.	.
- O=[N+]([O-])c1ccc(N2CCCC2)cc1NCc1ccccc1
 : 0.97	7.9	-2.8	i	89.1	23.3	106.8
- c1ccc(-c2nn[nH]n2)cc1
 : 0.96	.	.	i	96.5	.	.
- O=C(c1cccs1)N1CCN(C(=O)c2ccco2)c2ccccc2C1
 : 1.02	4.4	-1.5	i	97.8	.	.
- CCOC(OCC)P(=O)(c1ccccc1)c1ccccc1
 : 0.78	-3.1	-1.8	i	100.9	25.0	104.2
- CCCCCCS(=O)Cc1ccccc1 (configuration not stated)
 : 0.86	-4.9	-1.1	i	94.4	7.7	96.7
- COc1ccc(C)cc1-n1nnnc1SCC(=O)NNC(=O)c1ccc([N+](=O)[O-])cc1
 : 1	-9.2	-0.8	i	91.6	-44.1	115.6
- CC(C(=O)O)N1C(=O)C2C3CC(C2C1=O)C1C(c2ccccc2)c2sc(=O)[nH]c2SC31 (configuration not stated)
 : 1.06	-9.2	-1.4	i	90.3	-24.0	47.4
- COc1cc(/C=C/C(=O)O)cc(S(=O)(=O)Nc2ccc3nc(SC)sc3c2)c1OC
 : 1.05	6.5	.	i	100.1	.	.
- COc1ccc(CNC(=O)c2ccc(-c3ccccc3)cc2)cc1
 : 0.93	-1.2	-2.0	i	114.0	26.9	100.4

# Brought forward from above: 3 entries; new compounds follow.
# Every second line gives: HSV augment primary fold	PKD1 kinase inh	GALR2 ag	HSV augment	RGS16-Gao HTS	INS promoter inh	INS promoter inh cell count
- CC(C(=O)O)N1C(=O)C2C3CC(C2C1=O)C1C(c2ccccc2)c2sc(=O)[nH]c2SC31 (configuration not stated)
 : 1.06	-9.2	-1.4	i	90.3	-24.0	47.4
- COc1cc(/C=C/C(=O)O)cc(S(=O)(=O)Nc2ccc3nc(SC)sc3c2)c1OC
 : 1.05	6.5	.	i	100.1	.	.
- COc1ccc(CNC(=O)c2ccc(-c3ccccc3)cc2)cc1
 : 0.93	-1.2	-2.0	i	114.0	26.9	100.4
- C#CC(C)(C)NC(=O)c1ccc(-c2ccccc2F)cc1
 : 0.98	.	.	i	98.7	.	.
- Cn1nnnc1P(=O)(c1ccccc1)c1ccccc1
 : 0.91	6.3	0.3	i	86.2	18.2	119.3
- Cc1cccc(-n2ncc3c(NCc4cccs4)ncnc32)c1
 : 0.78	-0.9	-0.1	i	98.6	57.1	102.7
- CC1CC(C)CN(C(=O)CSc2ccsc2[N+](=O)[O-])C1 (configuration not stated)
 : 1.04	-1.1	.	i	100.5	0.0	74.7
- CNC(=S)NCc1ccc2[nH]c3c(c2c1)CCCC3
 : 0.95	5.8	.	i	95.2	-42.1	99.0
- Cc1ccc(/C=N/NC(=O)CNC(=O)c2cccs2)o1
 : 0.98	-4.6	.	i	109.6	-70.6	95.5
- O=C(Nc1ccc(F)c([N+](=O)[O-])c1)c1ccc2c(c1)C(=O)OC2=O
 : 0.89	.	.	i	101.8	.	.
- COC(=O)Cn1ncn2c(cc3oc(C)cc32)c1=O
 : 1.04	-11.5	-0.5	i	105.3	.	.
- O=C(O)COc1ccccc1/C=N/NC(=O)CN1CCN(Cc2ccccc2Cl)CC1
 : 0.93	.	.	i	98.7	.	.
- Cc1cc(C)n2cc(CSCc3ccco3)nc2n1
 : 0.97	2.9	-0.7	i	106.8	48.1	22.7
- COc1cccc(N2CCN(Cc3nc(N)nc(Nc4ccccc4)n3)CC2)c1
 : 1	-8.1	-3.4	i	105.9	-5.4	263.9
- CC1CCCCC1NC(=O)/C(C#N)=C/c1ccc(OCC(N)=O)cc1 (configuration not stated)
 : 1.02	-4.6	-1.5	i	100.2	.	.
- CCOc1ccc(OCc2ccc(C(=O)N3CCCC3)o2)cc1
 : 0.88	0.4	-1.7	i	100.1	-42.9	5.5
- Cc1nn(-c2ncc(C(F)(F)F)cc2Cl)c(=O)n1-c1c(F)cccc1F
 : 0.97	-5.5	.	i	98.8	.	.
- O=C(NCCO)c1ccc2nc(-c3ccco3)c(-c3ccco3)nc2c1
 : 1.05	-3.2	-2.5	i	80.7	28.6	148.5
- CCNc1nc(NC(C)C)nc(OCCOC(=O)Nc2ccccc2)n1
 : 0.89	-1.0	-0.8	i	87.0	-162.9	94.2
- CC(=O)NCCCC(=O)NC(CCC(=O)OCc1ccccc1)C(=O)OCc1ccccc1 (configuration not stated)
 : 0.81	-0.6	.	i	102.0	-7.1	93.2
- CCC(=O)Nc1ccc2nc(SCC(=O)N3CCCC3)sc2c1
 : 0.9	-11.9	-0.2	i	82.8	-26.3	32.8
- COc1cc(C(=O)Oc2cccc(C)c2)cc(OC)c1OC
 : 0.86	-9.7	-0.7	i	98.7	-43.2	81.8
- Nc1c(S(=O)(=O)c2cccc(Cl)c2)c2nc3ccccc3nc2n1/N=C/c1ccc(O)c(O)c1
 : 0.58	4.3	-1.3	i	79.8	.	.

# Compound profiles, as listed above. Screens in order: HSV augment primary fold, PKD1 kinase inh, GALR2 ag, HSV augment, RGS16-Gao HTS, INS promoter inh, INS promoter inh cell count
# COC(=O)Cn1ncn2c(cc3oc(C)cc32)c1=O reads 1.04, -11.5, -0.5, i, 105.3, ., .
# O=[N+]([O-])c1ccc(N2CCCC2)cc1NCc1ccccc1 reads 0.97, 7.9, -2.8, i, 89.1, 23.3, 106.8

# (next part)
# Every second line gives: HSV augment primary fold	PKD1 kinase inh	GALR2 ag	HSV augment	RGS16-Gao HTS	INS promoter inh	INS promoter inh cell count
- Cc1cc(Nc2ccccc2)nc2cc(O)ccc12
 : 0.87	-4.2	1.2	i	58.8	-36.6	104.9
- COc1ccc(S(=O)(=O)Nc2ccc3c(c2)OCO3)cc1C
 : 0.81	-3.8	-1.8	i	98.1	85.7*	94.0*
- CN(CCC#N)C(=O)CSc1nc2scc(-c3ccccc3)c2c(=O)[nH]1
 : 1	-9.3	-1.4	i	105.0	53.9	93.4
- COc1ccc(-c2n[nH]c(C)c2-c2ccc(OC)c(OC)c2)c(O)c1
 : 0.7	-2.5	-0.2	i	101.1	64.3	94.3
- Cc1ccc(S(=O)(=O)N2CCCCC2)cc1NC(=O)c1ccc2c(c1)OCO2
 : 0.93	2.7	0.5	i	99.3	.	.
- O=C(c1ccc(S(=O)(=O)NCC2CCCO2)cc1)N1CCN(c2cccc(Cl)c2)CC1 (configuration not stated)
 : 0.95	-7.4	.	i	103.2	.	.
- COc1ccc(CCc2nnc(CCC(=O)NCc3cnc4ccccn34)o2)cc1
 : 1.02	-1.5	.	i	102.2	8.7	50.5
- COc1ccccc1NC(=O)N1CCCC1C(=O)NCc1ccc2c(c1)OCO2 (configuration not stated)
 : 1	-9.3	-1.2	i	97.8	2.7	39.5
- Cc1ccc(N2C(=O)CC(c3c[nH]c4ccccc34)C2=O)cc1 (configuration not stated)
 : 1.01	-0.2	.	i	53.0	44.4	57.4
- Cc1ccc(C(CC(=O)NCCCN(C)C)c2ccc(OC(C)C)cc2)cc1 (configuration not stated)
 : 1.02	.	.	i	79.5	.	.
- CCNC(=S)N1CCN(c2ccccn2)CC1
 : 1.08	-0.5	-0.8	i	92.9	0.0	67.6
- Cc1cc(NS(=O)(=O)c2ccc(NC(=O)NC3CCCCC3)cc2)no1
 : 1.01	1.4	-0.1	i	97.4	50.0	110.6
- O=C(Nc1ccc(F)cc1)C1CCCCC1
 : 0.99	-7.6	-0.6	i	82.4	-32.3	111.1
- CCCNC(=S)Nc1cccc(C(F)(F)F)c1
 : 0.96	1.0	-0.3	i	106.3	18.5	75.2
- CC(C)OCc1c(C(=O)Nc2nccs2)oc2ccccc12
 : 1.03	3.9	.	i	94.4	-58.3	98.6
- COc1ccccc1NC(=O)c1ccc(N)cc1
 : 1.02	-8.4	-2.1	i	95.5	.	.
- CSc1nnc2c(n1)OC=Nc1ccccc1-2
 : 1.03	-2.6	-2.9	i	99.9	-323.1	82.5
- Cc1c(Cl)cccc1NCC(=O)Nc1ccc(Cl)cc1F
 : 1.03	6.4	-1.3	i	102.1	.	.
- CCO/C=N/c1c(C#N)c2c(c(=S)n1C)COC(C)(C)C2
 : 1.02	-6.1	0.2	i	96.4	-71.8	156.7
- OCC(O)C(O)C(O)C(O)C1NCCS1 (configuration not stated)
 : 0.95	-11.2	-2.4	i	97.2	-30.9	76.2
- C=CCNC(=O)NC(=O)COC(=O)[C@H](C)NS(=O)(=O)c1c(C)c(C)cc(C)c1C
 : 1.07	.	.	i	91.3	.	.
- Cn1c(=O)c2c(nc(CN3CCN(C(c4ccccc4)c4ccccc4)CC3)n2CC(N)=O)n(C)c1=O
 : 1.09	1.0	-0.7	i	102.2	-8.3	72.7
- CC1CCCC(NC(=O)C2CCN(S(=O)(=O)N3CCCCC3)CC2)C1C (configuration not stated)
 : 0.93	-2.6	.	i	107.0	.	.
- Cc1ccnc(SCc2cc(=O)c(OC(=O)c3cccs3)co2)n1
 : 1.01	6.2	.	i	103.7	41.7	100.4
- Cc1ccc(/C=N\NC(=O)C2CC(=O)N(c3ccccc3)C2)o1 (configuration not stated)
 : 0.9	.	.	i	101.2	.	.
- S=C(Nc1ccc2c(c1)OCO2)Nc1ccc2c(c1)OCO2
 : 0.88	-8.1	-1.6	i	146.3	-55.6	117.7
- COc1ccc(C)c2sc(=NC(=O)c3cccc(N4C(=O)CCC4=O)c3)n(C)c12
 : 0.94	.	.	i	105.4	.	.
- O=C(N=C1c2ccccc2CN1c1ccccc1)c1cccc([N+](=O)[O-])c1
 : 0.92	-2.1	-1.8	i	102.0	.	.
- Cc1cccc(NC(=O)Cn2c(C)c(C#N)c3ccccc32)c1C
 : 0.93	-5.8	0.7	i	106.8	.	.
- CCc1nc(NCCN2CCOCC2)c2oc3ccccc3c2n1
 : 1	0.5	-0.6	i	101.4	84.6*	106.2*
- O=C(O)c1nn(CC(=O)N2CCN(S(=O)(=O)c3ccc(Cl)cc3)CC2)c(=O)c2ccccc12
 : 1.19	.	.	i	102.6	.	.
- Cc1ccc(NC(=O)CNc2ccccc2CN(C)C2CCCCC2)cc1
 : 0.85	-9.4	.	i	100.3	.	.
- Cc1nc(Cl)c2c(n1)NC1=C(O2)C(=O)CCC1
 : .	-2.3	-1.7	?	58.8	.	.
- O=C(NCc1cccs1)C1CCCN1C(=O)Nc1ccccc1 (configuration not stated)
 : 0.94	-3.4	-1.1	i	29.4	.	.
- O=S(c1ccc2ccccc2c1)c1cnns1 (configuration not stated)
 : 0.97	0.8	-2.7	i	100.6	33.3	71.2
- CC(C)c1nnc(NC(=O)C2CCCN2C(=O)Nc2ccccc2[N+](=O)[O-])s1 (configuration not stated)
 : 0.93	0.3	.	i	114.9	.	.
- CCCN(CCC)CCCNC(=S)Nc1ccc2nc(N3CCN(CC)CC3)cc(C)c2c1
 : 0.79	4.1	.	i	98.4	.	.
- O=C(Cn1cnc2c(nnn2Cc2ccccc2)c1=O)N1CCCc2ccccc21
 : .	-10.3	-1.7	.	99.5	.	.
- COc1cc(-c2nc3ccccn3c2/N=C/c2cc(OC)c(O)cc2Cl)ccc1O
 : 0.98	20.3	.	i	99.0	.	.
- NC(=O)c1ccsc1NC(=O)COc1ccccc1
 : 1.01	4.2	0.6	i	104.6	28.9	79.5
- CC(=O)c1cccc(NC(=O)Cc2coc3cc4c(cc23)CCC4)c1
 : 1.01	-14.7	-0.8	i	108.6	-18.8	132.8
- O=C(O)C1CCCN1S(=O)(=O)c1cccc2nsnc12 (configuration not stated)
 : 0.98	-5.5	.	i	104.5	11.1	85.6
- O=C1c2ccccc2C(=O)N1CCCCN(C(=O)c1cc2ccccc2oc1=O)c1ccc(Cl)cc1
 : 0.99	-11.8	-2.3	i	126.9	-19.2	61.4
- O=C(O)c1ccccc1Nc1ccc([N+](=O)[O-])cc1
 : 1.01	0.6	-0.6	i	72.6	16.0	120.8
- CC(=O)N1C2CCCCC2S[C@H]2CCCCC21 (some centres not stated)
 : 1.01	-10.4	-0.9	i	90.0	-200.0	103.5
- N#Cc1c(NC(=O)CSc2nnc(-c3ccncc3)n2CC2CCCO2)sc2c1CCCC2 (configuration not stated)
 : 0.99	-0.8	-0.5	i	97.3	18.2	115.9
- CC(=O)NC1C2CN3CCN(C2)CC1(Cc1ccccc1)C3 (configuration not stated)
 : 0.9	-3.6	-0.9	i	101.4	5.6	97.6
- CC(C)=CC(=O)OCC(=O)Nc1cc(C)ccc1C
 : 0.9	-2.5	.	i	107.6	.	.

# Bioassay records from PubChem.
